Mtb MenB inh = inhibitors of Mycobacterium tuberculosis MenB enzyme; inhibition, %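 (about 12 µg/mL by stock and volumes)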; AID 540299; MenB enzyme assay, absorbance read-out; some hits fall short of the stated cut; actives 0.43% (n = 100,000); P9WNP5;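 active = mean of two replicates above 30%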;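 also: 0% = no compound and 100% = wells with inactive enzyme; the first replicate is given; strong numbers were not always called active; inactives centre near -10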
Target sequence (P9WNP5 whole entry, looked up): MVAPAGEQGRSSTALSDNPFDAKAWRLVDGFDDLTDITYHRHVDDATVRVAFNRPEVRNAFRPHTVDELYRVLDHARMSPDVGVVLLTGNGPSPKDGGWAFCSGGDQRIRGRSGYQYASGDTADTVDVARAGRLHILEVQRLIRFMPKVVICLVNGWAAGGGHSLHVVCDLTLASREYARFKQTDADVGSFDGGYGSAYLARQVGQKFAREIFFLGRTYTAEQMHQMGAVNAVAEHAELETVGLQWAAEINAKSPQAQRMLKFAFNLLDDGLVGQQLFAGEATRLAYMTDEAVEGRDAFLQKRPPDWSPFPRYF
Polio RdRp inh = inhibitors of poliovirus RNA polymerase binding and polymerization; P03300; poliovirus polymerase elongation, fluorescence polarization; active compounds read low; % elongation, % (compound at 16.7 µg/mL); actives 0.66% (n = 150,000); in the data active = % elongation below about 90%; also: some results filed as inactive read as strong as hits
Target sequence (P03300 1749-2209 limits assumed): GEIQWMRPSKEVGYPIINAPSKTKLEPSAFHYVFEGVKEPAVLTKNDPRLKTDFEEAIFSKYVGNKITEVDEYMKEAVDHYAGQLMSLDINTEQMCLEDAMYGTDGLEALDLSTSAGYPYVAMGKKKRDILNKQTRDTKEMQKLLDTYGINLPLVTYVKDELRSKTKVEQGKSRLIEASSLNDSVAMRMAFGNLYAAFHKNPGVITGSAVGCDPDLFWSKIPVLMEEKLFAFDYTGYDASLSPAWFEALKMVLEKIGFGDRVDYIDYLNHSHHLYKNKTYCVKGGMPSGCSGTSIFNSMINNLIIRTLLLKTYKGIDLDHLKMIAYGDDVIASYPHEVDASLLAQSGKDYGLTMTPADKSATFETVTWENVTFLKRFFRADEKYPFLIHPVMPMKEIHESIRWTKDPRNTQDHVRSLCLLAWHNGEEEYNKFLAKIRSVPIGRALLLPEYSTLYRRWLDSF
MbtI inh = blocks the Mycobacterium tuberculosis siderophore enzyme MbtI; P9WFX0; purified MbtI enzyme, fluorescence intensity read-out; inhibition, %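 (about 17 µg/mL by stock and volumes)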; actives 0.89% (n = 100,000); AID 493033;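 active = above 50% in both replicates, above 80% if mildly self-fluorescent; inactive = the rest, strongly fluorescent compounds included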;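 also: 0% = mean of negative and 100% = mean of positive controls; one replicate is shown; some compounds called inactive have numbers as strong as hits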
Polio RdRp inh intensity = second read-out of Polio RdRp inh, no call of its own (marks repeat the call); % elongation; measured here: total intensity read-out; formula for this scale not given here;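 total fluorescence in place of polarization; lower means less elongation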
An asterisk follows results filed as active; nt = not tested or not shown.

SMILES,Polio RdRp inh,Polio RdRp inh intensity,MbtI inh,Mtb MenB inh
CSc1ccccc1C(=O)Nc1ccccc1,101,102,-9,-5
CCc1ccc(-c2nc(CSCC(=O)N3CCOCC3)c(C)o2)cc1,102,103,30,-4
O=C(CCn1[nH]c(=O)ccc1=O)Nc1ccc2c(c1)CCC2,101,100,-5,-5
CCC(Sc1nc2ncccc2c(=O)n1Cc1ccccc1)C(=O)Nc1ccc(F)cc1 (configuration not stated),100,109,-6,-13
CCN(CC)c1nc(Nc2ccc(OC)cc2)nc(Nc2ccc(OC)cc2)n1,103,104,-12,3
O=C1CC(N2CCCc3ccccc32)C(=O)N1c1ccccc1 (configuration not stated),104,96,nt,-10
O=C(c1cc(=O)c2ccccc2o1)N1CCCc2ccccc21,100,101,10,3
O=c1oc2ccccc2cc1-c1csc(-c2ccccc2)n1,107,100,nt,-21

Among those listed so far, 2 contain an aryl thioether with sulfur outside any ring.
SMILES,Polio RdRp inh,Polio RdRp inh intensity,MbtI inh,Mtb MenB inh
CSc1ccccc1C(=O)Nc1ccccc1,101,102,-9,-5
CCC(Sc1nc2ncccc2c(=O)n1Cc1ccccc1)C(=O)Nc1ccc(F)cc1 (configuration not stated),100,109,-6,-13

Next entries follow:
SMILES,Polio RdRp inh,Polio RdRp inh intensity,MbtI inh,Mtb MenB inh
Cc1cc(Br)ccc1SCC(=O)OCC(=O)c1ccco1,109,104,10,-32
O=C(CSc1nnc(-c2ccccc2)o1)NC1CCCC1,101,102,-8,28
O=S(=O)(NCC1CCCO1)c1ccc(-n2cccn2)cc1 (configuration not stated),101,97,-7,-10
CC1(C)Cc2ccccc2CN1C(=O)c1ccccc1,102,107,12,-18
C=CCn1c(SCC(=O)c2ccc(N(C)S(C)(=O)=O)cc2)nnc1C1CCCCC1,110,124,1,-5
O=C(Nc1ccccc1)Nc1ccc(C(=O)N2CCCCC2)cc1,101,109,nt,2
O=C(CN1C(=O)/C(=C\c2ccccc2)Oc2ccccc21)NCCc1ccccc1,99,98,18,-22
CC(=O)N1CCN(c2ccc3ccccc3n2)CC1,101,105,104,-24

Remaining list, next part:
SMILES,Polio RdRp inh,Polio RdRp inh intensity,MbtI inh,Mtb MenB inh
COc1ccc(CCNC(=O)c2ccccc2)cc1,106,114,nt,-6
Nc1c(S(=O)(=O)Cc2ccc(Cl)cc2)sc2nc3c(cc12)CCCC3,101,110,107,-6
CC1(C)C2CC=C(/C=N/NC(=O)COc3ccc(C#N)cc3)C1C2 (configuration not stated),101,108,-9,-12
O=C(CCc1nc2ccccc2c(=O)[nH]1)Nc1cccc(O)c1,110,114,-7,-6
CCc1ccc2nc(NC(=O)Cn3ccc(=O)[nH]c3=O)sc2c1,103,110,23,-10
COCCCn1c(=O)c2ccccc2n(Cc2ccccc2)c1=O,101,100,33,-31
O=C1C(=O)N(CCc2c[nH]c3ccccc23)C(c2ccccn2)/C1=C(/O)c1ccccc1 (configuration not stated),97,96,nt,-11
O=C(CSc1nnc(-c2ccccc2)n1-c1ccccc1)NC1=NCCS1,102,107,5,-23

(listing goes on)
SMILES,Polio RdRp inh,Polio RdRp inh intensity,MbtI inh,Mtb MenB inh
COC(=O)C(CC(C)C)NC(=O)c1ccccc1C (configuration not stated),99,105,13,6
Cn1nc2c(c1N)CCC2,104,107,9,-11
Clc1cccc(OCCN2CCN(c3ccccc3)CC2)c1,104,97,nt,4
CC(NC1CCN(C)CC1)c1ccccc1 (configuration not stated),99,113,-3,26
CC(Sc1ccccn1)C(=O)Nc1ccccc1 (configuration not stated),102,101,94*,-42
CCSc1nc2n(n1)C(c1cccs1)C1=C(CCCC1=O)N2 (configuration not stated),101,104,-27,2
CCc1cc2c(ncn3cnnc23)s1,104,106,-12,nt
FC(F)(F)c1ccnn1-c1nc(-c2cc3ccccc3o2)cs1,108,110,20,-15

Further compounds follow.
SMILES,Polio RdRp inh,Polio RdRp inh intensity,MbtI inh,Mtb MenB inh
Cc1ccc(NC(=O)c2cnc3ccccn3c2=O)cc1,104,100,4,8
CC1CN(Cc2c(O)ccc3c(=O)c(-c4ccccc4)coc23)CC(C)O1 (configuration not stated),102,105,38,-1
CCCc1cc(=O)n2nc(N3CCC(C(=O)N4CCCC4)CC3)sc2n1,100,102,1,4
Cn1c(=O)c2cc(C(=O)N3CCCC3)sc2c2ccccc21,102,107,-109,-9
CCCNC(=O)Cn1c2ccccc2c2nc3n(c(=O)c21)CCS3,100,101,11,12
CC1=C(C(=O)N2CCCCC2)C2(CCC(C)CC2)OC1=O (configuration not stated),102,102,-3,-16
CC1(C)CC(=O)/C(=C/c2ccccc2)C(C)(C)N1,101,106,-1,-13
O=C(/C=C/c1ccccc1)NCCc1nc2ccccc2[nH]1,101,101,-5,0

Compounds above that have an aryl methoxy group (two):
SMILES,Polio RdRp inh,Polio RdRp inh intensity,MbtI inh,Mtb MenB inh
CCN(CC)c1nc(Nc2ccc(OC)cc2)nc(Nc2ccc(OC)cc2)n1,103,104,-12,3
COc1ccc(CCNC(=O)c2ccccc2)cc1,106,114,nt,-6

Four of these compounds, set out differently:
CCCNC(=O)Cn1c2ccccc2c2nc3n(c(=O)c21)CCS3
  Polio RdRp inh: 100 | Polio RdRp inh intensity: 101 | MbtI inh: 11 | Mtb MenB inh: 12
CC1=C(C(=O)N2CCCCC2)C2(CCC(C)CC2)OC1=O (configuration not stated)
  Polio RdRp inh: 102 | Polio RdRp inh intensity: 102 | MbtI inh: -3 | Mtb MenB inh: -16
CC1(C)CC(=O)/C(=C/c2ccccc2)C(C)(C)N1
  Polio RdRp inh: 101 | Polio RdRp inh intensity: 106 | MbtI inh: -1 | Mtb MenB inh: -13
O=C(/C=C/c1ccccc1)NCCc1nc2ccccc2[nH]1
  Polio RdRp inh: 101 | Polio RdRp inh intensity: 101 | MbtI inh: -5 | Mtb MenB inh: 0

The listing continues:
SMILES,Polio RdRp inh,Polio RdRp inh intensity,MbtI inh,Mtb MenB inh
CN(C(=O)c1cccc(OC(F)F)c1)C1CCCCC1,107,108,-18,-18
COC(=O)c1c(-c2c(Cl)cccc2Cl)noc1C(=O)NN,107,115,-14,8
O=c1c(O)c(-c2cc(O)c(O)c(O)c2)oc2cc(O)cc(O)c12,104,107,-70,2
O=C1CCCc2cc(S(=O)(=O)NCc3cccnc3)ccc2N1,99,102,11,-30
Cc1cc(C)nc(Nc2ccc(S(N)(=O)=O)cc2)n1,101,115,19,-16
CC(C(=O)Nc1ccccc1)C(=O)Nc1ccccc1,103,111,nt,-20
CCN(CC)S(=O)(=O)c1ccc(-c2nnc(SCC(=O)Nc3nc4ccccc4s3)o2)cc1,104,102,-6,11
CC1=C(C(=O)N(CC2CC=CCC2)CC2CCCO2)C2(CCCCC2)OC1=O (configuration not stated),104,106,-4,-23

Next part
SMILES,Polio RdRp inh,Polio RdRp inh intensity,MbtI inh,Mtb MenB inh
CCOC(=O)C1CCCN(C(=O)c2cc3c(C)nc4ccccc4c3o2)C1 (configuration not stated),100,102,-3,-9
COC(=O)c1sccc1NC(=S)N1CC(C)CC(C)C1 (configuration not stated),99,97,-1,-30
O=C(Cn1c(=O)oc2ccccc21)Nc1cccnc1,99,102,-20,-1
CCn1c(NCCCO)nc2ccccc21,99,108,-12,-2
O=C(CO)Nc1cc(Cl)ccc1Cl,105,106,14,-15
c1ccc(-c2c(-c3ccccc3)n(Cc3ccco3)c3ncnc(NCCCn4ccnc4)c23)cc1,102,102,116,-34
CCOc1ccc(NC(=O)N2CCC(CN3CCOCC3)CC2)cc1,103,106,-11,-14
O=C([C@@H]1CCCN1S(=O)(=O)c1ccc(Cl)cc1)N1CCN(c2ccccc2)CC1,104,101,12,-25

(cont.)
SMILES,Polio RdRp inh,Polio RdRp inh intensity,MbtI inh,Mtb MenB inh
C=CCn1c(=O)c2c(nc3n2CCN3c2ccc(F)cc2)n(C)c1=O,102,105,-4,-28
O=C(Oc1cccc(NC(=O)c2cccs2)c1)c1cccc(S(=O)(=O)N2CCOCC2)c1,105,110,nt,-24
CC1(C)CC(=O)/C(=C(\O)Cc2ccccc2)C(=NCc2ccccc2)C1,101,108,-13,nt
COCC(=O)n1nc(-c2ccco2)nc1NCc1ccccc1,100,101,27,-3
CN(C)c1ccc(C2NCCS2)cc1 (configuration not stated),105,105,9,-47
O=C(COc1ccc(-c2nnco2)cc1)N(CCc1ccccc1)Cc1ccccc1,99,106,5,-12
CCn1nc(C(=O)n2cc(C(=O)c3ccccc3O)cn2)c2ccccc2c1=O,nt,nt,11,-41
CCCNC(=O)Cn1ncn2c(cc3sc(CC)cc32)c1=O,102,98,-1,3

The list goes on:
SMILES,Polio RdRp inh,Polio RdRp inh intensity,MbtI inh,Mtb MenB inh
Clc1ccc(-c2cnc3n2CCCCC3)cc1,97,93,15,-14
COc1ccc(/C=N/N=C/c2c(O)[nH]c(=O)[nH]c2=O)cc1,101,99,39,-31
O=C(CSc1nnc(-c2cccs2)n1C1CC1)NC(=O)C1COc2ccccc2O1 (configuration not stated),100,106,8,-7
COC(=O)c1sc(N)c(C(=O)OC)c1COC(=O)c1ccc2c(c1)OCCO2,105,101,8,-14
CCOC(=O)c1[nH]c2ccccc2c1NC(=O)c1cccc(OC)c1OC,102,100,-1,-24
N#CC1(NC(=O)CSc2nc3scc(-c4cccs4)c3c(=O)[nH]2)CCCCC1,101,106,2,1
O=C1CSc2ccccc2N1Cc1ccc(Cl)cc1,97,101,-6,-11
CSc1ncc(F)c(N(C)C)n1,102,108,nt,-7

New compounds follow:
SMILES,Polio RdRp inh,Polio RdRp inh intensity,MbtI inh,Mtb MenB inh
CC(C)CCNc1c2c(nc3nncn13)CCC2,102,105,3,-8
Cc1oc2ccccc2c1CCOC(=O)c1ccc(Cl)cc1,109,110,0,-9
CC(C)N(C(=O)NC(=O)Nc1ccc(S(=O)(=O)N2CCCC2)cc1)S(C)(=O)=O,99,102,-5,-27
COC(=O)CNC(=O)Cc1cccc2ccccc12,nt,nt,-4,-9
CNS(=O)(=O)c1cccc(C(=O)OC2CCCCC2=O)c1 (configuration not stated),102,103,-6,-26
CC(=O)N[C@H]1[C@H](OCCN2C(=O)c3ccccc3C2=O)O[C@H](CO)[C@@H](O)[C@@H]1O,101,100,1,3
CCN(CC(=O)Nc1ccccc1N1CCOCC1)CC(=O)NC1CCS(=O)(=O)C1 (configuration not stated),100,109,-8,10
COc1cccc(C(=O)NCCS(=O)(=O)NC2CCCC2)c1,105,108,12,-10

3 successive entries already listed:
SMILES,Polio RdRp inh,Polio RdRp inh intensity,MbtI inh,Mtb MenB inh
Cc1oc2ccccc2c1CCOC(=O)c1ccc(Cl)cc1,109,110,0,-9
CC(C)N(C(=O)NC(=O)Nc1ccc(S(=O)(=O)N2CCCC2)cc1)S(C)(=O)=O,99,102,-5,-27
COC(=O)CNC(=O)Cc1cccc2ccccc12,nt,nt,-4,-9

Continuation:
SMILES,Polio RdRp inh,Polio RdRp inh intensity,MbtI inh,Mtb MenB inh
CCOC(=O)c1cc(-c2ccc(OC)c(S(=O)(=O)NC3CCCc4ccccc43)c2)on1 (configuration not stated),100,102,-16,-30
CCc1ccccc1NCc1c(CO)cnc(C)c1O,102,100,-5,-3
NS(=O)(=O)c1ccc(C23CC4CC(CC(C4)C2)C3)cc1,101,96,17,8
CC(=O)NC(CC(=O)Nc1ccc2c(c1)OCCO2)c1ccccc1 (configuration not stated),103,109,1,10
COC(=O)c1nnn(CC(=O)N(Cc2ccccc2)c2ccc(Br)cc2)c1C(=O)OC,97,101,-7,-25
Cc1onc(-c2ccccc2)c1C(=O)OCCN1C(=O)c2ccccc2C1=O,101,95,-7,-3
COc1cc2nc(=S)n3c(c2cc1OC)NC(CCC(=O)NCCc1ccc(Cl)cc1)C3=O (configuration not stated),100,96,16,-32
COC(=O)CN1C(=O)COc2cc(S(=O)(=O)N3CCCc4ccccc43)ccc21,104,107,-13,-10
CC(=O)O[C@H]1[C@H](OC(C)=O)[C@H](OC(C)=O)CO[C@@H]1c1nc2ccccc2s1,103,108,-10,2
Cc1cc(=O)oc2cc(OC(C)C(=O)NC3(C#N)CCCCC3)ccc12 (configuration not stated),100,99,101,0

Source: PubChem BioAssay
